ID4 SMM – binders of human ID4 protein, primary screen, biochemical, small molecule microarray, single point; Flag-ID4 binding, fluorescence F/B; 31,000 compounds, 1.2% hits; calls only; AID 624137, 2012; DNA-binding protein inhibitor ID-4 (Homo sapiens), P47928;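 active means spot signal over background at p below 0.07 in all four prints; compounds were printed on slides so no solution concentration is given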;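 further: a binder raises fluorescence above local background on the spot; about 2 pmol printed per array spot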
Target sequence (P47928 whole entry, looked up): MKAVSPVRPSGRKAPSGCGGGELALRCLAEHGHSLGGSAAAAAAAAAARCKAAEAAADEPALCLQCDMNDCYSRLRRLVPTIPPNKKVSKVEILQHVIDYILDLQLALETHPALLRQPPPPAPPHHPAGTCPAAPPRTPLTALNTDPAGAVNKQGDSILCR
Calls only.

For C[C@@H]1CN([C@@H](C)CO)C(=O)c2cccc(N(C)C)c2O[C@@H]1CN(C)C(=O)Nc1ccc(F)cc1 the results were ID4 SMM inactive.
For O=C(NCCCn1ccnc1)c1cnn2c1NC(c1ccccc1)CC2C(F)(F)F (configuration not stated) the results were ID4 SMM inactive.
O=C1O[C@@H](c2ccccc2)[C@@H](c2ccccc2)N2[C@@H](c3ccc(O)cc3)[C@]3(C(=O)Nc4ccc(C#CC5=CCCCC5)cc43)[C@@H](C(=O)N3CCCCCCC3)[C@H]12 was read as ID4 SMM inactive.
`CO[C@H](CN(C)Cc1ccc2c(c1)OCO2)[C@H](C)CN(C(=O)c1ccccc1)[C@H](C)CO` gave ID4 SMM inactive.
For Cc1ccc(-c2cnc3c(c2)C(=O)N([C@H](C)CO)C[C@@H](C)[C@@H](CN(C)Cc2ccccc2C(=O)O)O3)cc1 the results were ID4 SMM inactive.
`CCCC#Cc1ccc2c(c1)O[C@H](CN(C)CCC)[C@H](C)CN([C@@H](C)CO)S2(=O)=O` gave ID4 SMM inactive.
For CC(=O)N(C)C[C@H]1Oc2cc(C#Cc3ccccc3F)ccc2S(=O)(=O)N([C@H](C)CO)C[C@@H]1C the results were ID4 SMM inactive.
Screening CN(C)CC(=O)N[C@H]1C=C[C@@H](CC(=O)NCc2ccccc2F)O[C@H]1CO returned ID4 SMM inactive.
For COc1cc(C)nc(NC(=O)COc2ccc(Cl)cc2C)n1 the results were ID4 SMM inactive.
Cc1cc(N(CC(=O)Nc2cccc(C)c2C)S(C)(=O)=O)ccc1Br was read as ID4 SMM inactive.
`C[C@@H]1CN([C@H](C)CO)C(=O)c2ccccc2-c2ccccc2CO[C@@H]1CN(C)Cc1ccc(F)cc1` gave ID4 SMM inactive.
COc1ccc([N+](=O)[O-])cc1NC(=O)CN(c1cc(C)ccc1C)S(C)(=O)=O was read as ID4 SMM inactive.
COc1ccc(OC)c(NC(=O)CSc2nc(-c3ccccc3)nc3c2COC(C)(C)C3)c1 was read as ID4 SMM inactive.
Screening O=C(COc1ccc(C(=O)Nc2cc(Cl)ccc2Cl)cc1)Nc1cccc2ccccc12 returned ID4 SMM inactive.
CC1CC(NC(=S)NC2CC3C=CC2C3)CC(C)(C)C1 (configuration not stated) was read as ID4 SMM inactive.
For Cc1noc(C)c1NC(=O)N(C)C[C@H]1Oc2cc(C#CCN(C)C)ccc2S(=O)(=O)N([C@H](C)CO)C[C@@H]1C the results were ID4 SMM inactive.
`COc1ccc(NC(=O)COc2c(Cl)c(C)c(Cl)c(C)c2Cl)c([N+](=O)[O-])c1` gave ID4 SMM inactive.
For CC(=O)N(C)C[C@@H]1Oc2ncc(C#Cc3ccccc3F)cc2C(=O)N([C@H](C)CO)C[C@@H]1C the results were ID4 SMM inactive.
COC(=O)N(C)C[C@@H]1OCc2ccccc2-c2ccccc2C(=O)N([C@H](C)CO)C[C@H]1C was read as ID4 SMM inactive.
`C[C@H]1CN([C@@H](C)CO)C(=O)c2cc(Br)cnc2O[C@H]1CN(C)C(=O)c1ccc(F)cc1` gave ID4 SMM inactive.
Screening Cc1ccc(S(=O)(=O)N(C)CC(=O)Nc2ccc(C(N)=O)cc2)cc1 returned ID4 SMM inactive.
For CCCN(C)C[C@@H]1Oc2ncc(-c3cccc(C#N)c3)cc2C(=O)N([C@H](C)CO)C[C@H]1C the results were ID4 SMM inactive.
O=C(Nc1ccc(F)cc1)N[C@H]1C=C[C@@H](CC(=O)N2CCCCC2)O[C@H]1CO was read as ID4 SMM inactive.
For COc1cc(NC(=O)CCCN2C(=O)c3ccccc3C2=O)cc(OC)c1 the results were ID4 SMM inactive.

Brought forward from above: 6 compounds; new compounds follow.
COC(=O)N(C)C[C@@H]1OCc2ccccc2-c2ccccc2C(=O)N([C@H](C)CO)C[C@H]1C was read as ID4 SMM inactive.
`C[C@H]1CN([C@@H](C)CO)C(=O)c2cc(Br)cnc2O[C@H]1CN(C)C(=O)c1ccc(F)cc1` gave ID4 SMM inactive.
Screening Cc1ccc(S(=O)(=O)N(C)CC(=O)Nc2ccc(C(N)=O)cc2)cc1 returned ID4 SMM inactive.
For CCCN(C)C[C@@H]1Oc2ncc(-c3cccc(C#N)c3)cc2C(=O)N([C@H](C)CO)C[C@H]1C the results were ID4 SMM inactive.
O=C(Nc1ccc(F)cc1)N[C@H]1C=C[C@@H](CC(=O)N2CCCCC2)O[C@H]1CO was read as ID4 SMM inactive.
For COc1cc(NC(=O)CCCN2C(=O)c3ccccc3C2=O)cc(OC)c1 the results were ID4 SMM inactive.
C[C@H]1CN([C@@H](C)CO)C(=O)c2cc(-c3ccc(C#N)cc3)cnc2O[C@H]1CN(C)C(=O)CC1CC1 was read as ID4 SMM inactive.
O=C(NC1CCCCNC1=O)c1cn(S(=O)(=O)c2ccccc2)c2ccccc12 (configuration not stated) was read as ID4 SMM inactive.
Screening COC(=O)c1c(NC(=S)Nc2ccc(OC)cc2[N+](=O)[O-])sc2c1CCC(C)C2 (configuration not stated) returned ID4 SMM inactive.
CNC[C@@H]1Oc2cc(C#CC3CCCCC3)ccc2S(=O)(=O)N([C@@H](C)CO)C[C@@H]1C was read as ID4 SMM inactive.
For CN(C)c1ccc2c(c1)[C@@H]1C[C@H](CC(=O)NCc3ccccc3)O[C@@H](CO)[C@@H]1O2 the results were ID4 SMM inactive.
O=[N+]([O-])c1ccccc1C(c1c[nH]c2ccccc12)c1c[nH]c2ccccc12 was read as ID4 SMM inactive.
`Cc1cc(Cl)ccc1OC(C)C(=O)Nc1cc(C(=O)O)cc(C(=O)O)c1` (configuration not stated) gave ID4 SMM inactive.
For O=C(CCCN1C(=O)c2ccccc2C1=O)Nc1ccc(Cl)c(C(F)(F)F)c1 the results were ID4 SMM inactive.
Screening O=C(Cn1cnc2ccccc2c1=O)Nc1ccc(Oc2ccccc2)cc1 returned ID4 SMM inactive.
`C[C@H]1CN([C@@H](C)CO)C(=O)c2cc(C#Cc3cccnc3)cnc2O[C@@H]1CN(C)C` gave ID4 SMM inactive.
`O=C(C[C@H]1CC[C@H](NC(=O)C2CC2)[C@@H](CO)O1)Nc1ccccc1` gave ID4 SMM inactive.
`CCCCC/C=C\C/C=C\CCCCCCCC(=O)OC(CO)CO` gave ID4 SMM inactive.
Screening C[C@@H]1CN([C@H](C)CO)C(=O)c2cc(C#CCc3ccccc3)cnc2O[C@H]1CN(C)C(=O)C1CC1 returned ID4 SMM inactive.
Screening C[C@H](CO)N1C[C@H](C)[C@@H](CN(C)C(=O)Cc2ccccn2)Oc2cc(C#Cc3ccccc3)ccc2S1(=O)=O returned ID4 SMM inactive.
`C[C@H](CO)N1C[C@H](C)[C@@H](CN(C)CC2CCOCC2)Oc2cc(-c3cccnc3)ccc2S1(=O)=O` gave ID4 SMM inactive.
Cc1ccc(-c2nn3c(C)nnc3c3ccccc23)cc1S(=O)(=O)NCc1ccco1 was read as ID4 SMM inactive.
C[C@@H]1CN([C@H](C)CO)C(=O)c2cc(-c3ccccc3F)cnc2O[C@@H]1CN(C)C(=O)C1CCC1 was read as ID4 SMM inactive.
O=C(Oc1c(CN2CCOCC2)cc(Cl)c2cccnc12)c1ccc([N+](=O)[O-])cc1 was read as ID4 SMM inactive.
Screening O=C(CSc1nnc(-c2ccco2)o1)Nc1sc2c(c1C(=O)Nc1ccccc1)CCCC2 returned ID4 SMM inactive.
`CCOc1ccc(-n2c(SCC(=O)OC)nnc2-c2ccccc2)cc1` gave ID4 SMM inactive.
For O=C(C[C@H]1C=C[C@H](NC(=O)CCN2CCCCC2)[C@@H](CO)O1)NCc1ccc(Cl)c(Cl)c1 the results were ID4 SMM inactive.
Screening CCC(Sc1nnc(-c2ccc([N+](=O)[O-])cc2)n1C)C(=O)Nc1ccc(Cl)cc1 (configuration not stated) returned ID4 SMM inactive.
Screening C[C@H](CO)N1C[C@H](C)[C@@H](CN(C)CC2CCOCC2)Oc2ncc(C3=CCCCC3)cc2C1=O returned ID4 SMM inactive.
C/C(=C\CC(C)(C)CCC(=O)c1ccoc1)C(=O)O was read as ID4 SMM inactive.
`O=C(CSc1nnc(-c2ccccn2)n1-c1ccccc1)Nc1ccc2c(c1)OCCO2` gave ID4 SMM inactive.
For CCCN(C)C[C@H]1OCCCC[C@H](C)Oc2ccc(N(C)C)cc2C(=O)N([C@@H](C)CO)C[C@H]1C the results were ID4 SMM inactive.
Screening C/C=C/c1cnc2c(c1)C(=O)N([C@@H](C)CO)C[C@@H](C)[C@H](CN(C)Cc1ccccc1)O2 returned ID4 SMM inactive.
For Cc1ccc(S(=O)(=O)NC(C)C(=O)Nc2ccc(I)cc2)cc1 (configuration not stated) the results were ID4 SMM inactive.
`O=C(C[C@@H]1CC[C@@H](NS(=O)(=O)c2ccccc2)[C@H](CO)O1)NCCN1CCCCC1` gave ID4 SMM inactive.
Screening C[C@@H]1CN([C@H](C)CO)C(=O)c2cc(/C=C/c3ccccc3)cnc2O[C@@H]1CN(C)C(=O)c1ccccc1 returned ID4 SMM inactive.
`Cc1cc(=O)[nH]c(SCCCOc2ccccc2Cl)n1` gave ID4 SMM inactive.
`Cc1ccc(S(=O)(=O)NC2CCN(Cc3ccc(OCCO)cc3)CC2)cc1` gave ID4 SMM active.
Cc1ccc(OCC(=O)Nc2cccc(NC(=O)c3ccco3)c2)cc1C was read as ID4 SMM inactive.
CC(C)N(Cc1nc(-c2ccccc2Cl)no1)C(=O)c1ccccc1-c1ccccc1 was read as ID4 SMM inactive.
Screening Cc1ccc(C(=O)Nc2ccc(OCC(=O)O)cc2)cc1C returned ID4 SMM inactive.
Cc1cc(C(=O)NN)n(C(C)(C)C)n1 was read as ID4 SMM inactive.

Brought forward from above: 5 compounds; new compounds follow.
`Cc1ccc(S(=O)(=O)NC2CCN(Cc3ccc(OCCO)cc3)CC2)cc1` gave ID4 SMM active.
Cc1ccc(OCC(=O)Nc2cccc(NC(=O)c3ccco3)c2)cc1C was read as ID4 SMM inactive.
CC(C)N(Cc1nc(-c2ccccc2Cl)no1)C(=O)c1ccccc1-c1ccccc1 was read as ID4 SMM inactive.
Screening Cc1ccc(C(=O)Nc2ccc(OCC(=O)O)cc2)cc1C returned ID4 SMM inactive.
Cc1cc(C(=O)NN)n(C(C)(C)C)n1 was read as ID4 SMM inactive.
For C[C@@H]1CN([C@H](C)CO)S(=O)(=O)c2ccc(C3=CCCCC3)cc2O[C@@H]1CN(C)CC1CC1 the results were ID4 SMM inactive.
S=C(c1cccs1)N1CCCC1 was read as ID4 SMM inactive.
Screening Cn1c(SCC(=O)Nc2cccc(Br)c2)nnc1-c1ccc(Cl)cc1 returned ID4 SMM inactive.
`CCCN(C)C[C@H]1Oc2cc(-c3ccc(C)cc3)ccc2S(=O)(=O)N([C@H](C)CO)C[C@H]1C` gave ID4 SMM inactive.
For C[C@@H]1CN([C@@H](C)CO)C(=O)c2cc(C3=CCCC3)cnc2O[C@@H]1CN(C)Cc1cccnc1 the results were ID4 SMM inactive.
For COc1ccc([N+](=O)[O-])cc1N(CC(=O)N1CCOCC1)S(C)(=O)=O the results were ID4 SMM inactive.
COc1ccccc1CNC(=O)C[C@@H]1C[C@@H]2c3cc(NC(=O)NC4CCCC4)ccc3O[C@@H]2[C@@H](CO)O1 was read as ID4 SMM inactive.
Screening Cn1c(SCC(=O)Nc2ccc(Cl)cc2Cl)nnc1C12CC3CC(CC(C3)C1)C2 returned ID4 SMM inactive.
`COc1ccccc1NC(=O)C(C)NS(=O)(=O)c1ccc(F)cc1` (configuration not stated) gave ID4 SMM inactive.
Cc1c(Cl)cccc1N(CC(=O)O)S(=O)(=O)c1ccccc1 was read as ID4 SMM inactive.
C[C@@H]1CN([C@H](C)CO)C(=O)c2cc(-c3ccc(F)cc3)cnc2O[C@@H]1CN(C)CC1CCOCC1 was read as ID4 SMM inactive.
`O=C(CSc1nnc(-c2ccc([N+](=O)[O-])cc2)n1-c1ccccc1)N1CCOCC1` gave ID4 SMM inactive.
COc1ccc(-c2ccc(CCC(=O)O)n2-c2ccc(C(=O)O)cc2)cc1 was read as ID4 SMM inactive.
For COC(=O)c1ccccc1NC(=O)C(C)Oc1ccccc1F (configuration not stated) the results were ID4 SMM inactive.
For O=C(C[C@@H]1C=C[C@H](NC(=O)C2CCC2)[C@H](CO)O1)NCc1ccccc1Cl the results were ID4 SMM inactive.
For O=C(CN1C(=O)c2ccccc2S1(=O)=O)Nc1ccccc1C(=O)N1CCOCC1 the results were ID4 SMM inactive.
Screening Cc1ccc(-c2noc(CCCN3C(=O)c4ccccc4C3=O)n2)cc1 returned ID4 SMM inactive.
O=C(O)Cc1nn(Cc2ccc(Br)cc2F)c(=O)c2ccccc12 was read as ID4 SMM inactive.
Screening C[C@@H]1CN([C@@H](C)CO)S(=O)(=O)c2ccc(Br)cc2O[C@H]1CN(C)C returned ID4 SMM inactive.
Cc1ccc(-c2nnc(SCc3ccccc3C#N)n2-c2ccccc2)cc1Cl was read as ID4 SMM inactive.
For Cc1noc(C)c1NC(=O)N[C@H]1C=C[C@H](CC(=O)NCc2ccc(Cl)c(Cl)c2)O[C@@H]1CO the results were ID4 SMM inactive.
C[C@@H](NC(=O)C[C@@H]1C=C[C@H](NC(=O)Cc2ccccn2)[C@H](CO)O1)c1ccccc1 was read as ID4 SMM inactive.
For O=C(Nc1cc(C(F)(F)F)ccc1Cl)C(Cc1ccccc1)N1C(=O)C2C3C=CC(C4CC34)C2C1=O (configuration not stated) the results were ID4 SMM inactive.
Cc1ccc(N(Cc2ccco2)C(=O)c2cccc(S(=O)(=O)N3CCOCC3)c2)cc1 was read as ID4 SMM inactive.
COc1cc(OC)cc(-c2nnc(SCC(=O)Nc3sc4c(c3C#N)CCCC4)o2)c1 was read as ID4 SMM inactive.
Screening CCCNC(=O)N[C@@H]1C=C[C@@H](CC(=O)NCCc2ccccc2)O[C@H]1CO returned ID4 SMM inactive.

An excerpt; rates above refer to the full screens.
